# Menin MLL FP FL: qHTS Assay for Inhibitors Targeting the Menin-MLL Interaction in MLL Related Leukemias: Competition With Fluorescein Labeled MLL-derived Peptide. Fluorescence polarization, fluorescein-MLL peptide displacement from menin. FP activity change, % at 61.4 µM. 290,000 tested, under 10 active. AID 1766, 2009; inconclusive = falling polarisation curve, or a change in total fluorescence; inactive = total fluorescence flat and polarisation flat or rising; no compound was filed as active; the % refers to the polarisation; negative = inhibition;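 also: % of control where 0% means no effect; inhibitors lower the polarisation; unlabelled MLL peptide was the positive control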
# ClpP mod: qHTS Assay for Activators of ClpP | ATP-dependent Clp protease proteolytic subunit (Bacillus subtilis (strain 168)), P80244 | purified B. subtilis ClpP, FRET peptide cleavage, 20 min | Potency, µM (top dose mostly 57.5 µM), inactives show at the top dose activity change, negative = active | 340,000 compounds, 1.9% hits; active = well fitted falling curve with a large enough effect; inconclusive = small, poorly fitted or top-dose-only effect; inactive = no such curve, though single readings can be large or run the other way; also: potency is read from the fitted curve at half-maximal effect; the source files actives as falling curves though it sought activators and does not explain the sign; nearly all actives have a fitted effect of over 65% in size; many hits overshoot -100%
# Target sequence (P80244 whole entry, looked up): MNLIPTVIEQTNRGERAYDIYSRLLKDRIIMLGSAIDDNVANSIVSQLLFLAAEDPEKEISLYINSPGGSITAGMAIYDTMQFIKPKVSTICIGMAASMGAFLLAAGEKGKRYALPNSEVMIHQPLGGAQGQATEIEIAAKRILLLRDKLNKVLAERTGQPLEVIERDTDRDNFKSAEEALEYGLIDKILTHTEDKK
#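 Purified B. subtilis ClpP, 10 microg/mL final in Tris/HCl pH8 with KCl, BSA, glycerol and Tween-20, cleaved an Abz/nitrotyrosine-quenched decapeptide. Fluorescence (ex 320, em 430) was read at 0 and 20 min at room temperature. Delta was normalized to 5.8 microM ADEP and DMSO/no-enzyme controls.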
# gsp agonist: qHTS for Agonist of gsp, the Etiologic Mutation Responsible for Fibrous Dysplasia/McCune-Albright Syndrome: qHTS; gsp mutant cells, cAMP HTRF, 30 min; control for the full effect not named in the record; Potency, µM (titrated, usually from 76.9 µM), without a hit: at the top dose activation (cAMP increase), actives largely listed as activators; 340,000 compounds, 0.13% hits; AID 624287, 2012; active = well fitted activation curve with a large enough effect; inconclusive = small, poorly fitted or top-dose-only effect, or another doubt; inactive = no such curve, though single readings can be large or run the other way; cell line not stated here;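 also: phosphodiesterase inhibitor Ro 20-1724 added with compounds to block cAMP breakdown; potency is read from the fitted curve at half-maximal effect; nearly all actives have a fitted effect of over 60% in size; about a fifth of the inactives were tested at one dose only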
#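 Cells stably selected in G418 were plated at 2000/well, grown 16-24 hr, then given compounds in DMSO with the PDE inhibitor […] (300 uM solution added) for 30 min at 37C; cAMP was read by HTRF.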
# TRPV1 PAM: HTS Assay for Compounds that Act as Potentiators of the Vanilloid Receptor 1 | TRPV1-expressing cells, Fluo-8 calcium influx, capsaicin EC20 potentiation; host cell line not named in the record; control for the full effect not named in the record | potentiation, % at 8.33 µM | 320,000 compounds, 0.02% hits; active means potentiation above 80%; inconclusive means 30% to 80%; inactive means below 30%; also: 0% is about no effect
# Target sequence (Q8NER1 whole entry, looked up): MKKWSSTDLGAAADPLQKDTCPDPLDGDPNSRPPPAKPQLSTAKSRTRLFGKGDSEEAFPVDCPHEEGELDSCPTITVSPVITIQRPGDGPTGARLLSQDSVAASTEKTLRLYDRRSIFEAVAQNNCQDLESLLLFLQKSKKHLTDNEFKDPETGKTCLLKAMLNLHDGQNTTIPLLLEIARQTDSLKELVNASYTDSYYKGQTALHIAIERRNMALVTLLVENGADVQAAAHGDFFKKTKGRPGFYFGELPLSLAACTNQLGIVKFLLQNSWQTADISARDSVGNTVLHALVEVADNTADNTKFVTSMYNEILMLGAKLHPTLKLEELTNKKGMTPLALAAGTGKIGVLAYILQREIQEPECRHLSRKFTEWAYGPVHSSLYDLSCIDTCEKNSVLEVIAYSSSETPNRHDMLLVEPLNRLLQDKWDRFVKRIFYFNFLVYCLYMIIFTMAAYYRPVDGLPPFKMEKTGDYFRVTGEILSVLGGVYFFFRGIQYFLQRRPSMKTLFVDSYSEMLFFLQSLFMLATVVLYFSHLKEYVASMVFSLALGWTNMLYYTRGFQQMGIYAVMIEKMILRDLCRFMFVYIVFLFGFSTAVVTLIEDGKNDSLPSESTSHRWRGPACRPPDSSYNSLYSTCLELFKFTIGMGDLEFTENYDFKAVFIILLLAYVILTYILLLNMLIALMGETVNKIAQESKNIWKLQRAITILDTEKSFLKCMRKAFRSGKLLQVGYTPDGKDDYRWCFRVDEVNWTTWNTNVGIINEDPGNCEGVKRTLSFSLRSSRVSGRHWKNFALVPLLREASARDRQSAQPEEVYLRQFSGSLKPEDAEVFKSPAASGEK
#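 Fluo-8 calcium influx in TRPV1-expressing cells, kinetic read (ex 480/em 520 nm). Compound added and read 3 min for agonist activity, followed by capsaicin at EC20 final and 2 min further read for enhancement.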
# gsp antag: qHTS for Antagonists of gsp, the Etiologic Mutation Responsible for Fibrous Dysplasia/McCune-Albright Syndrome: qHTS. Potency, µM (doses to about 76.9 µM), for the others: at the top dose activity change, negative = inhibition, hits mostly inhibitors. 340,000 compounds, 0.4% hits. AID 624288, 2012. gsp-mutant cells, cAMP HTRF, 30 min; control for the full effect not named in the record; active = falling curve of any shape with a large fitted effect; inconclusive = falling curve, mostly with a smaller effect; inactive = flat or rising curve; cell line not stated here;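 also: intracellular cAMP measured with PDE inhibitor Ro 20-1724 present during compound exposure; potency is read from the fitted curve at half-maximal effect; % is scaled to controls: 0 for no effect and ±100 for the full control effect; nearly all actives have a fitted effect of over 65% in size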
#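 HTRF cAMP read-out (cAMP-d2 plus anti-cAMP antibody-K in lysis buffer, 30 min RT). Before lysis, cells are exposed to compounds with […] for 30 min at 37C in DPBS containing Ca/Mg, BSA and Tween 20.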
# Sfp PPTase inh: qHTS Assay for Inhibitors of Bacillus subtilis Sfp phosphopantetheinyl transferase (PPTase). Potency, µM, for inactives: max response, negative = inhibition, hits mostly inhibitors. Biochemical Sfp PPTase activity, qHTS. 310,000 compounds, 3.5% hits; active = well fitted inhibition curve with a large enough effect; inconclusive = small, poorly fitted or top-dose-only effect, or another doubt; inactive = no such curve, though single readings can be large or run the other way;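 also: the enzyme is Sfp with the accession as filed and its product quenches rhodamine fluorescence; potency is read from the fitted curve at half-maximal effect; 0% = enzyme reaction without inhibitor and -100% = no enzyme wells; top concentration of the series not given in the record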
#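 Step 1, compound plus 15 nM Sfp-PPTase, 15 min, room temperature. Step 2, add rhodamine-CoA (5 uM) and BHQ-2-YbbR (12.5 uM). Step 3, read 525/598 nm fluorescence at 0 and 30 min.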
# D2 PAM: Beta-Arrestin HTS for Positive Allosteric Modulators of the Human D2 Dopamine Receptor: Potentiators; potentiation, % (no concentration beside the values); DiscoveRx D2 beta-arrestin cells, luminescence, 90 min; 100% = 57 uM dopamine signal; 360,000 compounds, 0.23% hits; AID 624464, 2012; active = potentiation of 50% or more; inconclusive = 30% to 50%; inactive = 30% or less;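 also: compound concentration not given in the record; tested on top of an EC20 dose of dopamine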
#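 PathHunter beta-arrestin assay in DiscoveRx D2 cells. Compounds were added with an EC20 of dopamine (50 nM final) for 90 min at 37 deg C. Luminescence was read 1 h after detection reagent, with 57 uM dopamine as the EC100 control.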
# Numbers without * were called inactive; ? = inconclusive; . = no result given; & = joins results of further samples; [ ] = dose if it differs, or a comment.
SMILES	Menin MLL FP FL	ClpP mod	gsp agonist	TRPV1 PAM	gsp antag	Sfp PPTase inh	D2 PAM
Cc1ccc(C(=O)NCCC(=O)NCc2cc(=O)n(C)c(=O)n2C)cc1	-0.9	-4.7%	?	5	15%	11%	-10
OCC1(Cc2ccc(Cl)cc2)CCN(Cc2ccc(Oc3ncccn3)cc2)CC1	-5.9	.	-1%	0	6%	20%	-17
Cc1ccc(C)c(S(=O)(=O)Nc2cc3c4c(c2)CCN4C(=O)CC3)c1	.	-15%	-13%	1	-1%	.	11
COc1ccc([C@@H]2C[C@H](c3ccccc3)Oc3cc(OC)c(OC)c(OC)c32)cc1	-0.9	-1.9%	.	20	1%	-8%	-4
O=C1N=C(N2CCCC2)S/C1=C\c1ccccc1	0.1	0.2%	18%	-14	8%	21%	-1
Cc1ccc(C(C(=O)NC(C)(C)C)N(C(=O)c2csnn2)c2cccc(F)c2)o1 (stereo unspecified)	0.2	-1.4%	0%	-21	6%	10%	-8
O=C(CN1CCN(S(=O)(=O)c2ccc(Cl)cc2)CC1)Nc1ccc2c(c1)OCO2	-2.0	-14%	-38%[inhibitor]	.	1%	2%	17
COC(=O)CN(c1ccc(C)cc1)S(=O)(=O)c1ccc2c(c1)n(C)c(=O)c(=O)n2C	-1.2	-10%	6%	-4	-8%	4%	-3
O=C(Cc1ccc(Cl)cc1Cl)NC1CCCCCC1	-0.4	.	0%	-12	-16%	25%	-8
N#C/C(=C(/O)CO/N=C/c1ccccc1Cl)c1nc2ccccc2[nH]1	11	-0.6%	-22%	0	1%	20%	6
COc1ccc(S(=O)(=O)NNC(=O)C2CC(c3cccnc3)=NO2)cc1 (stereo unspecified)	-1.1	.	12%[15.4 µM]	-2	1%	17%	0
C=CC[C@@H](CC(=O)N[C@H](CO)Cc1ccccc1)C(=O)N[C@@H](COC(=O)[C@@H](CC=C)Cc1ccc(F)cc1)Cc1c[nH]c2ccccc12	.	2.3%	-8%	.	1%	.	0
COc1ccc(-c2nc3ccccc3n2Cc2ccccc2)cc1	1.9	3.1%&-21%	30%	8	-14%	?	-12
CCN(C(=O)CN1c2ccccc2CC1C)c1c(N)n(Cc2ccccc2)c(=O)[nH]c1=O (stereo unspecified)	6.7	.	18%	5	6%	13%	-3
O=C(NC(=O)N1CCN(c2cccc(Cl)c2)CC1)c1ccccc1	0.4	0.4%	?	7	7%	12%	-20
O=C(Nc1cccc(F)c1)NC1CCN(Cc2ccccc2)CC1	0.3	2.5%	16%	-20	-18%	8%	-18
O=C(Nc1ccccc1Cl)c1ccc(C(=O)Nc2ccccc2Cl)cc1	.	-6.3%	1%	.	-5%	.	1
COc1ccc(/C=C(\C#N)C(=O)Nc2cc(S(=O)(=O)N3CCOCC3)ccc2N2CCCC2)cc1	1.4	.	25%	-11	-5%	35µM*	-5
COC(=O)Cc1ccc(NC(=S)NCCCO)cc1	2.8	0.5%	10%	-3	18%	8%	-1
CCN=C1SCC(=O)N1c1ccc(OC)cc1	1.2	-1.6%	13%	23	4%	13%	-1
Oc1cccc(/C=N/N(Cc2ccccc2)c2ccccc2)c1	-1.3	.	-3%[15.4 µM]	1	-73%	19%	2
CC(C)CCNC(=O)NC(=O)CSc1nnc2ccccn12	4.2	-5.9%	?	-1	4%	1%	-2
COc1ccc(CNC(=O)c2nn(-c3ccccc3)cc2OC)cc1	0.2	.	-8%[15.4 µM]	-4	-9%	-13%	-6
O=C1N=C2N(CCN3CCCCC3)c3ccccc3N2/C1=C\c1ccc([N+](=O)[O-])s1	.	0.6%	?	.	-12%	.	-11
CC1CCN(c2cc(N3CCOCC3)c(F)cc2[N+](=O)[O-])CC1	6.5	1.2%	5%	-14	-13%	-4%	0
Cn1c2nc3ccccc3c-2nc2ccccc21	.	-2.1%	30%	.	.	.	-5
CC1CCCC(C)N1C(=O)COC(=O)C(Cc1ccccc1)NC(=O)c1cccs1 (stereo unspecified)	-8.0	-4.4%	-38%[inhibitor]	-14	-5%	1%	-1
N#C/C(=C\c1ccc(Cl)c([N+](=O)[O-])c1)c1ccccn1	-4.0	.	-1%[15.4 µM]	-12	-28%	-17%	-28
COCCn1c(=S)[nH]c2cc(C(=O)N3CC(C)CC(C)C3)ccc2c1=O (stereo unspecified)	0.0	.	?	16	-14%	-8%	-12
CC(OC(=O)CC(NC(=O)c1ccccc1Cl)c1ccccc1)C(=O)Nc1cccc(Cl)c1Cl (stereo unspecified)	8.8	-0.6%	-3%	7	-13%	13%	-1

# Next part.
SMILES	Menin MLL FP FL	ClpP mod	gsp agonist	TRPV1 PAM	gsp antag	Sfp PPTase inh	D2 PAM
Cc1cccc(C(=O)N(Cc2ccc(C)o2)C2CCS(=O)(=O)C2)c1 (stereo unspecified)	-5.8	-13%	-23%	3	-4%	6%	18
COCCn1cnnc1SCC(=O)Nc1cc(C)on1	.	14%	-1%[15.4 µM]	.	15%	.	-17
CNC(=O)[C@H](C)[C@@H]1C[C@@]1(C)[C@@H](NC(=O)OCc1ccccc1)c1ccccc1	5.0&-4.7	0.8%	?	-14	4%	-10%&-3%	-8
CCN(CC)S(=O)(=O)c1cccc(NC(=O)CNc2cccc(S(=O)(=O)N3CCOCC3)c2)c1	.	1.1%	26%	21	?	.	19
CCCc1oc(C(=O)O)cc1CN1CCOCC1	-1.5	0.8%	-6%	7	4%	1%	-7
Cc1ccccc1/C=N/Nc1nc2ccccc2c(=O)n1O	-0.2	.	-10%	22	-13%	32µM*	-10
N#C/C(=C\c1ccc(Cl)cc1Cl)c1n[nH]c(Cn2cncn2)n1	1.7	-28%	?	-25	-32%	7%	-10
O=C(NCCc1ccc(Cl)cc1)C(=O)c1c[nH]c2ccccc12	-8.1	.	7%	26	5%	-4%	-4
COc1ccnc(NCc2ccc(Cl)cc2)c1C#N	-3.6	?	-22%	9	1%	2%	1
O=C(OCc1nc(-c2ccccc2Cl)no1)c1ccco1	.	1.6%	2%	-2	8%	.	3
O=C(COc1ccccc1)NCC(=O)Nc1cccc(S(=O)(=O)NC2=NCCC2)c1	1.4	.	9%	-3	5%	15%	-1
CC(C)(C)C(=O)Nc1ccc(C(=O)N/N=C/c2ccccc2OC(=O)c2ccc(Cl)cc2)cc1	2.8	1.2%	-83%[inhibitor]	10	-19%	-5%	-14
Cc1cccc(N)c1-c1c(C)cccc1N	-0.8	.	-50%[inhibitor]	7	6%	17%	-2
CCCn1c(=O)c2[nH]cnc2n(-c2ccc(Cl)cc2)c1=O	-2.4	0.2%	-1%[15.4 µM]	-6	11%	8%	12
O=C(COC(=O)/C=C/c1ccc(S(=O)(=O)N2CCOCC2)cc1)NC1CCCCCCC1	0.3	1.0%	-7%	4	-3%	11%	-15
CCOC(=O)C1(CCOC)CCN(CC(C)Cc2ccc3c(c2)OCO3)CC1 (stereo unspecified)	-2.2	.	-55%[inhibitor]	-4	2%	16%	-21
C#CCOC(=O)c1ccccc1C(=O)N(CC)CC	2.9	-1.1%	3%	-6	9%	16%	-9
O=C(O)C(Cc1c[nH]c2ccccc12)NS(=O)(=O)c1ccc(Cl)cc1 (stereo unspecified)	1.6	.	14%[15.4 µM]	6	7%	13%	14
CCOc1ccc(S(=O)(=O)N2CCC(C(=O)N3CCN(c4ccccc4F)CC3)CC2)cc1C	.	-1.2%	-69%[inhibitor]	14	-2%	-2%	1
CCOC(=O)Cn1c(=NC(=O)CC)sc2c(C)cc(C)cc21	1.0	.	17%[15.4 µM]	-30	24%	3%	-4
CCCOc1cc(C)c(S(=O)(=O)NC2CC(C)(C)NC(C)(C)C2)cc1C	-1.2	0.7%	29%	1	19%	3%	-14
O=C1CC[C@@H](CN(Cc2ccccn2)Cc2nc(Cc3ccccc3)no2)N1	-7.1	.	-15%[15.4 µM]	-1	8%	-15%	-9
CN1C(=O)N(CC(=O)Nc2sccc2C(N)=O)C(=O)C12CCCCC2	.	-2.7%	29%	-2	2%	.	-1
CC(NC(=O)c1ccccc1Br)c1nnc(SCC(=O)NC2CCCCC2)n1C (stereo unspecified)	-2.7	.	-14%	-4	8%	2%	-3
CCOC(=O)[C@@H]1[C@H]2COc3cc(OC)ccc3[C@@H]2N2C(=O)N(c3ccc(Cl)cc3)C(=O)[C@]12C	.	-5.7%	.	.	-4%	.	-49
NS(=O)(=O)c1ccc(CCNc2nc(CN3CCCCC3)nc3sc4c(c23)CCC4)cc1	0.0	-7.8%	24%	-2	-8%	8%	-9
Cc1ccccc1C1c2[nH]c3ccccc3c2C[C@H]2C(=O)N(c3ccccc3C(=O)NCCCN3CCOCC3)C(=O)N12 (stereo partly specified)	-5.7	-13%	.	?	-5%	-3%	-27
CCOC(=O)[C@@H]1[C@H]2COc3ccc(Br)cc3[C@@H]2N2C(=O)N(c3ccc(OC)cc3)C(=O)[C@@]12C	.	-1.3%	-29%	.	-4%	.	-3
Cc1ccc(S(=O)(=O)NCCC(=O)NCC(c2cccs2)N(C)C)cc1 (stereo unspecified)	.	-0.4%	-6%	-9	10%	.	-4
O=C1NC(=O)C(=Cc2ccco2)S1	.	.	-19%	.	-3%	.	-4
O=C(COc1ccc(S(=O)(=O)NC2CCCCC2)cc1Cl)NCc1ccc2c(c1)OCO2	1.7	0.7%	0%	8	-14%	20%	-14
COc1ccccc1-c1nn(Cc2ccccc2)cc1C(=O)NCC(c1ccco1)N1CCCC1 (stereo unspecified)	.	0.2%	-39%[inhibitor]	-14	3%	.	-5

# Source: PubChem BioAssay

# The order is random. Share with any hit: about 5.1%.
